GIV Gai3 FP = inhibitors of GIV peptide binding to Galpha-i3, primary screen, biochemical, fluorescence polarization, FITC-GIV GBA peptide, rat Galphai3; AID 1224905, 2016; 210,000 compounds, 0.42% hits; percent of control (FP), % (concentration not given with the values); Guanine nucleotide-binding protein G(i) subunit alpha-3 (Rattus norvegicus), P08753; 90 min; hits give low values; scaled: aluminum fluoride 0%, vehicle 100%;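 active = replicate mean at 85% of control or lower, very high polarization wells dropped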;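 note: wells of about 15 µL received 100 nL stock; the first replicate is given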
Target sequence (P08753 whole entry, looked up): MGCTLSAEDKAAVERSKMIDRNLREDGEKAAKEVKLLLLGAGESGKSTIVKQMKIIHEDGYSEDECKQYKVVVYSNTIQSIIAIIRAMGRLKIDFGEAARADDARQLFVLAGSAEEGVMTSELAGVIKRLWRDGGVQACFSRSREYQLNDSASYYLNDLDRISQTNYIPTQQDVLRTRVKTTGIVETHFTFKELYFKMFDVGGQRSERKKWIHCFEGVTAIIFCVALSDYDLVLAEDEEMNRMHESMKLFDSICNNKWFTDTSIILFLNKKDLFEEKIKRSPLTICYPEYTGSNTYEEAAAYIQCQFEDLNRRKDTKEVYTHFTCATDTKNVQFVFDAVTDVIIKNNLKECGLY
* marks the source's active call; other numbers are inactive results. Only part of the results is shown (hit frequency here may not be typical).

CN(C1CCCCC1)S(=O)(=O)c1ccc2c(c1)CCN2
  GIV Gai3 FP: 98

CCCCOc1ccc(C2C(N3C(=O)c4c(Cl)c(Cl)c(Cl)c(Cl)c4C3=O)C(=O)N2c2ccc(C)c(Cl)c2)cc1 (centres undefined)
  GIV Gai3 FP: 113

Cc1sc(-c2cc(C(F)(F)F)on2)cc1S(=O)(=O)NCCC1=CCCCC1
  GIV Gai3 FP: 98

COc1cc(C2C3=C(CCCC3=O)NC3=C2C(=O)c2ccccc23)ccc1O (centres undefined)
  GIV Gai3 FP: 116

Cc1ccc(OCc2cc(=O)n3oc(C)cc3n2)c(NC(=O)c2ccc(C(C)(C)C)cc2)c1
  GIV Gai3 FP: 104

COC(=O)c1cc(C)nc2c1c(=O)nc(SCc1nc(-c3ccccc3)oc1C)n2C1CC1
  GIV Gai3 FP: 103

CCOC(=O)C1=CN(Cc2ccc(OC)cc2)C=C(C(=O)OCC)C1c1ccc(Cl)c([N+](=O)[O-])c1
  GIV Gai3 FP: 109

CCCCn1c(SCc2nc(-c3ccc(C)cc3)no2)nc2cc3c(cc2c1=O)OCO3
  GIV Gai3 FP: 108

COc1ccc(CCNC(=O)C2(C)CC3c4ccccc4C2c2ccccc23)cc1OC (centres undefined)
  GIV Gai3 FP: 108

Cc1cc(C)cc(NC(=O)c2cc(S(=O)(=O)N3CCc4ccccc43)ccc2F)c1
  GIV Gai3 FP: 112

Cc1cc(NC(=O)CSc2nc3cc(C(=O)NCC4CCCO4)ccc3c(=O)n2Cc2ccco2)no1 (centres undefined)
  GIV Gai3 FP: 102

CC1(C)c2ssc(=S)c2-c2ccccc2N1C(=O)COc1cccc2ccccc12
  GIV Gai3 FP: 121

Cc1ccc(-c2nc3ccc(C)cn3c2NC(=O)c2ccco2)cc1
  GIV Gai3 FP: 111

CCN1CCN(c2ccc(C(=O)OC)cc2NC(=O)CCc2ccccc2)CC1
  GIV Gai3 FP: 105

Cn1cccc1CN1CCC(C(O)c2ccccc2)CC1 (centres undefined)
  GIV Gai3 FP: 100

O=C(CSc1nc2cc(C(=O)NCc3ccco3)ccc2c(=O)n1C1CCCCC1)c1ccccc1
  GIV Gai3 FP: 106

Cc1nn2c(S(=O)(=O)N3CCN(C4CCCCC4)CC3)c(C)nc2s1
  GIV Gai3 FP: 96

Cc1nc(N2CCCCC2)c2c(C)c(C(=O)N3CCN(Cc4ccc5c(c4)OCO5)CC3)sc2n1
  GIV Gai3 FP: 103

O=C(Cc1ccccc1)Nn1c(SCc2cc(=O)n3cc(Cl)ccc3n2)nc2ccccc2c1=O
  GIV Gai3 FP: 120

O=C(c1cc2c(s1)CCCC2)N1CCCN(c2nnc3ccc(Cl)cn23)CC1
  GIV Gai3 FP: 107

Cc1ccccc1-c1cc2n(C)c(C)c(CCC(=O)N3CCN(c4ccccn4)CC3)c(=O)n2n1
  GIV Gai3 FP: 106

CCc1ccc2c3c(c(C)[nH]c13)CCN1C(=O)OC(C)(C)C21C (centres undefined)
  GIV Gai3 FP: 112

COc1cc(OC)cc(C(=O)N2CCCC(c3nnc(C(=O)Nc4ccc(Cl)cc4)s3)C2)c1 (centres undefined)
  GIV Gai3 FP: 108

Cc1cccc(N2CCN(c3ncnc4c3cnn4-c3ccccc3)CC2C)c1 (centres undefined)
  GIV Gai3 FP: 102

COC(=O)Cc1nc(NCc2ccc(Cl)cc2)c2c(C)c(C)sc2n1
  GIV Gai3 FP: 106

COCCNC(=O)c1nc(-n2cnnc2)ccc1Br
  GIV Gai3 FP: 103

NNC(=O)c1nnn(-c2nonc2N)c1CSc1nc2ccccc2[nH]1
  GIV Gai3 FP: 110

CCOc1ccc(-c2cc3c(=O)n(Cc4nc(-c5ccccc5)no4)ncn3n2)cc1
  GIV Gai3 FP: 101

Cc1cccc(C2OC3(C(=O)c4ccccc4C3=O)C3C(=O)N(c4ccccc4Br)C(=O)C23)c1 (centres undefined)
  GIV Gai3 FP: 101

CCCn1cnc2cc(-c3noc(C(C)NS(=O)(=O)c4ccc(C)cc4)n3)ccc21 (centres undefined)
  GIV Gai3 FP: 103

COC(=O)C1(C(F)(F)F)N=C(c2ccc(Cl)cc2)OC(N2CCOCC2)=N1 (centres undefined)
  GIV Gai3 FP: 109

S=C1NC2(CCCCC2)Nc2sc3c(c21)CCCC3
  GIV Gai3 FP: 123

Cc1ccccc1CNC(=O)CN(c1ccccc1Br)S(C)(=O)=O
  GIV Gai3 FP: 106

C=CCN1C(=O)/C(=c2\sc3n(c2=O)C(c2ccc(OC(=O)c4ccco4)cc2)C(C(=O)OCC)=C(C)N=3)c2ccccc21 (centres undefined)
  GIV Gai3 FP: 103

COc1ccc(N2C(=O)CSC2c2cc3c(cc2Br)OCO3)cc1Cl (centres undefined)
  GIV Gai3 FP: 111

CS(=O)(=O)N1CCC(n2cnc3cc(F)ccc3c2=O)CC1
  GIV Gai3 FP: 104

O=C(NC1CCCC1)c1cc(C2CC2)[nH]n1
  GIV Gai3 FP: 101

Cc1ccc(-c2nc3ccc(C(F)(F)F)cc3nc2-c2ccc(C)cc2)cc1
  GIV Gai3 FP: 101

COCCNC(=O)N1CCCC(C)(C(=O)NCc2ccccc2)C1 (centres undefined)
  GIV Gai3 FP: 111

Clc1ccccc1CSc1nc2ccncc2[nH]1
  GIV Gai3 FP: 110

COc1ccc(NC(=O)CSC2=C(C#N)C(c3ccc(Cl)cc3)C(C(=O)OC(C)C)=C(C)N2)cc1 (centres undefined)
  GIV Gai3 FP: 107

CCN1/C(=C/C=c2/sc3nc4ccccc4n3c2=O)C=Cc2ccccc21
  GIV Gai3 FP: 105

COc1cccc(NS(=O)(=O)c2cc(C(=O)N3CCCCC3)ccc2NCc2ccccc2Cl)c1
  GIV Gai3 FP: 110

CCCOc1ccc(C2Nc3ccc(C)cc3[C@H]3OCCC[C@@H]23)cc1 (some centres undefined)
  GIV Gai3 FP: 103

COC(=O)c1ccccc1NC(=O)C1CCCN(C(=O)c2ccccc2F)C1 (centres undefined)
  GIV Gai3 FP: 101

N#CC1=C(N)Oc2n[nH]c(-c3ccc4c(c3)OCO4)c2C1c1ccc(F)c(Br)c1 (centres undefined)
  GIV Gai3 FP: 95

CCc1onc(C)c1C1CCCN1Cc1cccc(C)c1 (centres undefined)
  GIV Gai3 FP: 110

O=C(Nc1sc2c(c1C(=O)Nc1cccc3ccccc13)CCCCC2)c1ccccc1F
  GIV Gai3 FP: 108

COc1cc(-c2ccno2)ccc1S(=O)(=O)N1CCC(N2CCCCC2)CC1
  GIV Gai3 FP: 116

COc1ccc(Br)cc1C1C(N2C(=O)c3cccc([N+](=O)[O-])c3C2=O)C(=O)N1c1ccc(Br)c(C)c1 (centres undefined)
  GIV Gai3 FP: 106

Cc1ccccc1N1CC(O)(c2ccc(OC(F)F)cc2)[N+]2=C1CCCC2 (centres undefined)
  GIV Gai3 FP: 106

COC(=O)c1cccc(NC(=O)NCc2nnc(C(=O)Nc3ccc(OC)cc3)s2)c1
  GIV Gai3 FP: 108

Cc1ccc(N/C(SCc2ccccc2C)=C(/C#N)C(N)=O)cc1C
  GIV Gai3 FP: 107

O=S(=O)(c1cn(Cc2noc(-c3ccc(Br)cc3)n2)cn1)N1CCOCC1
  GIV Gai3 FP: 104

CCNC(=O)c1ccc(-c2nc3cc(NS(=O)(=O)c4cccc5nsnc45)ccc3n2C)cc1
  GIV Gai3 FP: 100

CN(C)CCNC(=O)c1cc2cc(S(=O)(=O)N(C)C)ccc2n1Cc1ccncc1
  GIV Gai3 FP: 98

CC(=O)c1ccc(N2C(=O)C(=O)/C(=C(/O)c3ccccc3)C2c2ccc(Br)cc2)cc1 (centres undefined)
  GIV Gai3 FP: 104

COc1ccc(Cl)cc1NC(=O)c1ccc2c(=O)n(-c3ccc(OC)c(OC)c3)c(=S)[nH]c2c1
  GIV Gai3 FP: 107

CC(C)NC(=O)CCn1c(=O)c2cc(Cl)ccc2n2c(SCC(N)=O)nnc12
  GIV Gai3 FP: 99

COc1ccc(CCn2c(-c3ccc(F)cc3)csc2=Nc2cccc(C(F)(F)F)c2)cc1OC
  GIV Gai3 FP: 104

The results go on:
Molecule,GIV Gai3 FP
O=C1Nc2c(S(=O)(=O)N3CCOCC3)cc(S(=O)(=O)N3CCOCC3)c3cccc1c23,121
O=C(Cn1cnc2c(-c3ccccc3)csc2c1=O)NCc1ccccc1,108
O=c1c(C=Nc2ccc(F)cc2)c(C(F)(F)F)[nH]n1-c1ccccc1,102
COCCn1cc2c3c(cccc31)CN(C(=O)NCC1CCCO1)CC2 (centres undefined),81*
O=S(=O)(c1ccc2c(c1)CCC2)N1CCC(c2noc(-c3ccccc3)n2)CC1,103
CCOC(=O)c1ccc(N2C(=O)C3C4C=CC(C(OC(C)=O)OC(C)=O)(O4)C3C2=O)cc1 (centres undefined),105
CCOCc1nc2c(c(=O)[nH]1)C1(CCCC1)Cc1ccccc1-2,114
CC12CN3CC(C)(CN(C1)C3c1cccc(Br)c1)C2O (centres undefined),116
O=C(c1nnc(-c2cc(S(=O)(=O)Nc3ccc(Cl)cc3)c[nH]2)o1)N1CCOCC1,103
COc1cc(C2Nc3ccc4ncccc4c3C3=C2C(=O)CC(C)(C)C3)cc(OC)c1O (centres undefined),105
O=C(NCC1CCCO1)c1ccc2c(=O)n(CCc3c[nH]c4ccccc34)c(=S)[nH]c2c1 (centres undefined),105
COc1cc(C2N(Cc3ccccc3)CCN2Cc2ccccc2)ccc1OC(C)=O,102

A draw from above in order of number of heavy atoms, lowest first.
Molecule,GIV Gai3 FP
CC12CN3CC(C)(CN(C1)C3c1cccc(Br)c1)C2O (centres undefined),116
CCOCc1nc2c(c(=O)[nH]1)C1(CCCC1)Cc1ccccc1-2,114
O=c1c(C=Nc2ccc(F)cc2)c(C(F)(F)F)[nH]n1-c1ccccc1,102
COCCn1cc2c3c(cccc31)CN(C(=O)NCC1CCCO1)CC2 (centres undefined),81*
O=C(Cn1cnc2c(-c3ccccc3)csc2c1=O)NCc1ccccc1,108
CC(C)NC(=O)CCn1c(=O)c2cc(Cl)ccc2n2c(SCC(N)=O)nnc12,99
O=C(c1nnc(-c2cc(S(=O)(=O)Nc3ccc(Cl)cc3)c[nH]2)o1)N1CCOCC1,103
CN(C)CCNC(=O)c1cc2cc(S(=O)(=O)N(C)C)ccc2n1Cc1ccncc1,98
COc1cc(C2N(Cc3ccccc3)CCN2Cc2ccccc2)ccc1OC(C)=O,102
CCOC(=O)c1ccc(N2C(=O)C3C4C=CC(C(OC(C)=O)OC(C)=O)(O4)C3C2=O)cc1 (centres undefined),105
COc1ccc(Cl)cc1NC(=O)c1ccc2c(=O)n(-c3ccc(OC)c(OC)c3)c(=S)[nH]c2c1,107
COc1ccc(CCn2c(-c3ccc(F)cc3)csc2=Nc2cccc(C(F)(F)F)c2)cc1OC,104

(list continues)
Molecule,GIV Gai3 FP
CCN(Cc1ccccc1)S(=O)(=O)c1cc(-c2nc(-c3ccccc3)no2)sc1C,107
COc1ccc(-c2cn3cc(Cl)ccc3n2)cc1Br,107
CC1=C(C(=O)OCc2ccccc2)C(c2ccc(F)cc2F)C(C#N)=C(N)O1 (centres undefined),107
CC(C)c1nnc(-c2ccc(S(=O)(=O)N3CCCC3)o2)o1,105
Cc1ccc(CNS(=O)(=O)c2ccc(-c3nnc(C4CC4)o3)o2)o1,108
Cn1c(=O)c(C(=O)Nc2ccccc2F)nc2ccccc21,100
CCOc1cccc(C2Nc3ccc(Cl)cc3[C@H]3OCCC[C@@H]23)c1OC (some centres undefined),98
CCCc1cc(C2CCCN2Cc2cc(Cl)ccc2O)no1 (centres undefined),99
O=C(Nc1ccccc1)Nc1nc(-c2ccco2)cn1/N=C/c1ccccc1,106
O=C(NCC1COCCO1)c1cccc(NC(=O)c2nsc3ccccc23)c1 (centres undefined),99
O=C(CSc1nc2ccc(NC(=O)c3ccc(Cl)cc3Cl)cc2s1)NCC1CCCO1 (centres undefined),102
Cc1ccc(S(=O)(=O)NCc2nnc(NC(=O)c3ccc(Br)cc3)s2)cc1,108
COC(=O)C1=C(C(=O)OC)SC(=C2C(=S)C(C)(C)Nc3c(OC)cccc32)S1,132
CCOC(=O)c1c(CSc2nc(C)cc(C(F)(F)F)c2C#N)n(C)c2cc(Br)c(OC(C)=O)cc12,113
Cc1ccc(-c2nc(C3CCN(S(=O)(=O)c4ccc(F)c(F)c4)CC3)no2)cc1,101
CCc1cc(C2CCCN2S(=O)(=O)c2c(C)noc2C)on1 (centres undefined),103
COC(=O)c1ccc(N2N=C(C)/C(=C/c3cccn3-c3ccc(S(N)(=O)=O)cc3)C2=O)cc1,103
Cc1ccc(Cc2nnc(-c3ccc(NC(=O)Nc4ccc(Br)cc4)cc3)o2)cc1,107
O=C(Cn1nc(C(=O)Nc2ccccc2)ccc1=O)Nc1ccc(Br)cc1,104
Cc1cccc(NC2=NC(=S)N(c3ccccc3C)C23CCCC3)c1,106
CC1C=CCC2C(=O)N(c3ccc(C(=O)OCC(=O)c4ccc(Cl)cc4)cc3)C(=O)C12 (centres undefined),103
CCN1C(=O)CC(C(=O)Nc2ccccc2OC)SC1=Nc1cccc(C(F)(F)F)c1 (centres undefined),109
CCOC(=O)c1c(S(=O)(=O)NCC(=O)Nc2cc(C)ccn2)c(C)n(CC)c1C,101
Cc1csc(-c2csc(S(=O)(=O)N3CCc4ccccc4C3)c2)n1,98
COC(=O)c1ccc(-n2c(/C=C\c3ccc(F)c(F)c3)nc3ccccc3c2=O)cc1,104
CN(CC(=O)N1CCc2ccccc2C1)S(=O)(=O)c1cc2c(cc1Cl)NC(=O)CO2,104
Cc1nn(-c2ccc3nnc(C)n3n2)c(C)c1CCC(=O)N1CCN(c2ccccn2)CC1,98
Cc1cc(C)c(-c2csc(Nc3ccccn3)n2)cc1C,96
O=C(NCc1ccc(Br)cc1)C1CCCN(c2ncc(-c3ccc(F)cc3)cn2)C1 (centres undefined),104
CCCCSc1nnc2n(-c3ccccc3OC)c(=O)c3c(n12)-c1ccccc1CC31CCCCC1,108
COc1ccc(-c2cc(C(F)(F)F)n3nc(C(=O)NCc4cccnc4)c(Cl)c3n2)cc1,107
Clc1nc(NCCN2CCOCC2)nc(NCc2ccccc2)n1,110
Cc1ccc(C2CC(=O)Nc3c2c(C)nn3-c2ccc3nnc(C)n3n2)cc1 (centres undefined),97
